AID504770 = growth inhibition of E. coli YBA685, primary screen, V. cholerae RctB inhibitors. z-score (test concentration not listed). E. coli YBA685 rctB-dependent plasmid, OD600 growth, 3 h; hits give low values. hit rate 0.27% among 130,000. AID 504770, 2011;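 active = z-score under -2 on both plates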;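 also: wells of about 30 µL received 100 nL stock; score is relative to mean and SD of the test wells; the first replicate is given; strong numbers were not always called active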
CapD inh = Bacillus anthracis CapD inhibitors, primary screen, biochemical, fluorescence intensity | CapD gamma-glutamyltranspeptidase (Bacillus anthracis Ames Ancestor) | purified CapD enzyme, fluorescence intensity read-out; hits give low values; some hits fall short of the stated cut | z-score (test concentration not listed) | hit rate 0.23% among 140,000 | AID 492967, 2010;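 active = z-score under -4 in either of two replicates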;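 also: stock transfer was 100 nL into about 40 µL; score is relative to mean and spread of the plate; one replicate is shown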
An asterisk follows results filed as active; x = not tested or not shown. Rows are unselected (roughly 0.37% active in at least one column).

SMILES	AID504770	CapD inh
COc1cnc(SCc2ccc(Cl)c(Cl)c2)nc1Oc1ccccc1	x	-0.52
Cc1ccccc1-n1cc(C(=O)O)c2ccccc2c1=O	x	23
O=C1c2cccnc2C(=O)N1c1ccc(-c2nc3cc(Cl)ccc3o2)cc1	-0.7	x
CS(=O)(=O)c1cc(C#N)c(N2CCN(C(=O)CCC(=O)O)CC2)nc1-c1ccc(Cl)cc1	x	-0.18
C=CC[n+]1ccsc1N	0.25	0.11
CCCn1c(NCc2ccccc2O)nc2ccccc21	-0.3	0.32
CC(C)c1ccc(NC(=O)CN2CCC(n3nnc4ccccc43)CC2)cc1	1.4	x
Cc1cc(NC(=O)C2CCCC2)nc2c1c(=O)oc1ccccc12	-0.95	5
CC1ON(c2ccc(Br)cc2)C(=O)NC1=O (configuration not stated)	-1.5	0.09
O=c1nc2n3ccccc3ncc-2s1	0.25	x
CC(C)(C)C1=N/C(=C\c2ccccc2)C(=O)O1	-0.5	-1.6
CSc1cc(-c2ccccc2)[o+]c(-c2ccccc2)c1	0.2	-0.07
CCOC(CNC(=O)c1sc2nc(C)nc(N3CCCCC3)c2c1C)OCC	x	2.4
CC(=O)Nc1ccc(C(=O)Nc2ccc(-c3nc4ccccc4o3)cc2)cc1	0.6	5.1
C(CC1CCNCC1)CC1CCNCC1	-0.45	1.5
O=C(O)CNC(=O)CCCCC(=O)NCC(=O)O	x	-0.14
Cc1c(-c2cccc(NC(=O)CC(C)C)c2)nc2ncccn12	-1	68
CC(=O)ON1C(C)(C)C=C(C(N)=O)C1(C)C	-0.2	0.06
CCOc1ccc(C(=O)OCC(=O)Nc2cccc(Cl)c2)cc1	0	0.3
c1cncc(CNc2nc(N3CCOCC3)nc(N3CCOCC3)n2)c1	x	0.59
O=C(OCc1nc2ccccc2s1)c1cccc(Br)c1	-0.65	-0.49
COC(=O)Cc1nc(NC(=O)c2ccc(OC)cc2)sc1C	0.15	0.4
O=C(c1cc(-c2ccncc2)nc2ccccc12)N1CCN(c2cccc(Cl)c2)CC1	x	-0.39
CCOCC(=O)Nc1cccc(C(F)(F)F)c1	-0.4	-0.67
CN1CCN(/N=C/c2ccc(-c3ccccc3)cc2)CC1	0.7	x

New compounds follow:
SMILES	AID504770	CapD inh
Cc1ccc(Oc2ccc3c(c2)C(=O)N(CC(=O)O)C3=O)cc1	-0.05	0.28
COc1cccc(CNC(=O)c2ccc3nc[nH]c3c2)c1	0.25	x
Cc1c(Cl)cccc1Nc1ccccc1C(=O)O	1.4	-0.14
CCN1CCN(C(c2ccccn2)c2c(C)[nH]c3ccccc23)CC1 (configuration not stated)	0.15	-1
COc1ccc(-n2ncc3c(Nc4cc(C)cc(C)c4)ncnc32)cc1	x	0.26
O=[N+]([O-])c1cccnc1NCc1ccccn1	x	-1.1
CC1(C)CC(=O)C2=C(C1)N(Cc1cccnc1)C(=O)NC2(C(F)(F)F)C(F)(F)F	-0.15	0.33
O=S(=O)(Nc1cccnc1)c1ccccc1	-2	0.03
COc1cc(/C=c2\sc3nc(-c4ccco4)nn3c2=O)cc(Br)c1OC(C)=O	1.2	-0.86
COC(=O)c1oc2ccc(Cl)cc2c1C	-0.5	x
O=C(NC1CCN(Cc2ccccc2)CC1)c1cc(-c2ccco2)nc2ccccc12	2.8	x
Cc1ccc(N/C=C/C(=O)c2ccc(C)o2)c(O)c1	-0.3	-2.7
OC(COc1ccc(Br)cc1)CN1CCOCC1 (configuration not stated)	-0.35	x
NC(=O)C1CCCN1S(=O)(=O)c1ccc(F)cc1 (configuration not stated)	-0.25	x
O=C(NCCc1ccccc1)c1ccc(OCc2cccc(Cl)n2)cc1	x	-0.25
CCOC(=O)N1CCc2ccccc21	-0.6	-0.34
CCOC(=O)C1CCN(C(=O)c2sc3ncn(CC(=O)Nc4ccc(C)c(Cl)c4)c(=O)c3c2C)CC1	x	-1.4
CC(C)(C)C(=O)[C@H]1[C@H](c2cccs2)C(C#N)(C#N)[C@@H]2c3ccccc3C=CN21	x	6.4
COc1cccc(-c2cc(-c3ccccc3)c(C#N)c(SCC(=O)Nc3nc4ccccc4o3)n2)c1	x	0
CCOC(=O)/C(C#N)=C/Nc1nc(CN2CCCCC2)cs1	-0.15	x
CC(=O)NC1(C(F)(F)F)C(=O)Nc2c1c(=O)[nH]c(=O)n2Cc1ccco1 (configuration not stated)	2	0.095
c1ccc(Cn2c(-c3ccccc3)nc3ccccc32)cc1	0.45	0.59
O=C(NC(=S)Nc1ncccn1)c1cccs1	-0.15	x
CCN(/N=C\c1ccccc1O)C(=S)NC	0.45	-1.8
Cc1c(C)c2c(ccc3c(C)cc(=O)oc32)oc1=O	0	0.51

Next section
SMILES	AID504770	CapD inh
COc1ccc(C(CC(=O)N2CCN(Cc3ccccc3)CC2)n2cccc2)cc1 (configuration not stated)	-0.6	0.27
OC1(c2ccc(Cl)cc2)CSC(=S)N1Cc1ccco1 (configuration not stated)	-0.6	-0.15
COc1ccc2c(C)cc(Cl)nc2c1	-0.6	13
O=c1cc(NCc2ccccc2)[nH]c(=O)[nH]1	-0.2	0.11
COc1ccc(-n2cc(C(=O)NCCCN3CCCC3=O)nn2)cc1	-0.6	0.1
COc1ccc(/C=C/C(=O)NCc2ccccc2)cc1	0.95	0.36
Cc1csc(=O)n1CCC(=O)OCc1nnc(-c2ccccc2)o1	-0.45	x
COC(=O)c1cn(CCCOc2ccccc2OC)c2ccccc12	-0.8	0.14
Cc1ccc(S(=O)(=O)Nc2cc(Sc3ncn[nH]3)c(O)cc2C)cc1	0.7	x
COC(=O)c1ccc(CSCc2ccc(C(=O)OC)o2)o1	-0.8	x
COc1ccc(-c2n[nH]c(=S)o2)cc1	1.2	17
COc1cn(-c2ccccc2)nc1C(=O)NCc1ccccc1CN1CCCC1	-0.95	x
COc1ccc(C2C(C(=O)OC3CCCC3)=C(C)NC3=C2C(=O)CC(c2ccc(OC)c(OC)c2)C3)c(OC)c1 (configuration not stated)	x	3.1
O=C(O)CNC(=O)c1ccc2c(c1)OCO2	-1.5	x
CCCCOC(=O)c1sc2nc3c(c(-c4cccs4)c2c1N)CCC3	x	0.46
COc1ccc(C2=NN3C(C2)c2cc(Cl)ccc2OC3c2cccc(Cl)c2)cc1 (configuration not stated)	x	0.18
O=C1CSC(c2c(F)cccc2Cl)N1c1cccc(C(F)(F)F)c1 (configuration not stated)	0.85	-1.1
CCC(Sc1nc2ccccc2c(=O)n1CCC(=O)NCCc1ccc(OC)c(OC)c1)C(=O)NCc1ccco1 (configuration not stated)	x	-0.24
CCOC(=O)c1[nH]c(C)c(C(=O)OCc2nc3ccc(Cl)cc3n2CCO)c1C	-0.2	x
CCOC(=O)CC(=O)c1sc2c(c1N)c(=O)[nH]c(=O)n2-c1ccc(OC)cc1	-0.55	x
C/C(=N\NC(N)=O)c1ccc(-n2ccnc2)cc1	-0.5	x
C[C@H](NC(=O)c1ccco1)C(=O)Nc1nc(-c2ccccn2)cs1	0.35	x
CCOC(=O)C1=C(C)NC(C)=C(C(=O)OCC)C1C(=O)OCC(=O)N1c2ccccc2CC1C (configuration not stated)	0.3	x
CCOC(=O)C1=C(N)Oc2c(OC)cc(Br)cc2C1C(C#N)C(=O)OCC (configuration not stated)	x	-1
CCn1c(-c2cc(C(=O)c3ccccc3O)c[nH]2)nc2ccccc21	-0.95	x

Following part.
SMILES	AID504770	CapD inh
CC1CC(NC(=O)c2c(O)nc3ccccn3c2=O)CC(C)(C)C1 (configuration not stated)	-0.25	x
COc1ccc(CCNC(=O)CC(c2ccccc2)c2cccc(C)c2O)cc1OC (configuration not stated)	0.1	0.73
CC1CCCC(C)N1C(=O)NC1CCCCC1 (configuration not stated)	-0.05	0.92
CN1c2ccccc2-c2nc3ccccc3n2C1c1cccs1 (configuration not stated)	1.4	65
CC1CCc2c(sc(NC(=O)c3ccccc3)c2C(=O)N2CCCCC2)C1 (configuration not stated)	-0.1	3.9
Cn1nnnc1SCSc1nnnn1C	-0.4	-0.08
COC(=O)CNC(=O)c1ccc(NC(=O)Nc2cccc(C)c2)cc1	0.65	x
CC(=O)Nc1ccc(OC(=O)c2ccccc2O)cc1	-0.25	23
CC(=O)Nc1cccc(Nc2nc(-c3ccccc3F)nc3ccccc23)c1	x	6.8
CCCOc1ccc(C2/C(=C(/O)c3ccc(C)c(F)c3)C(=O)C(=O)N2Cc2ccco2)cc1 (configuration not stated)	-0.4	x
CCOc1ccc2c(c1)C(=C1SC(C(=O)OC)=C(C(=O)OC)S1)C(=S)C(C)(C)N2C(=O)CCC1CCCCC1	x	-0.79
COc1cc(OC)nc(C(c2ccccc2)N2CCN(C(=O)c3ccc(-c4ccccc4)cc3)CC2)n1 (configuration not stated)	x	-0.21
COc1ccccc1NNC(=O)C(O)(c1ccc(C)cc1)c1ccc(C)cc1	x	0.4
CC(=O)c1ccc(-c2ccc(C(C)=O)cc2)cc1	x	0.07
CCN(CC)C(=O)CSCc1cnn(-c2ccccc2)c1-n1cccc1	0.5	0.23
CC(=O)/C(=C\Nc1cc(C(F)(F)F)cc(C(F)(F)F)c1)c1ccccc1	x	-0.59
O=c1cc(Cl)[nH]c(=O)n1CCNc1ncc(C(F)(F)F)cc1Cl	x	0.16
OCc1cn(Cc2ccccc2Cl)c2ccccc12	1.4	-0.85
C=CCNCc1ccc(-c2cccc(Cl)c2C)o1	-0.05	x
CCOC(=O)c1c(C)[nH]c(C)c1C(=O)CSc1nnc2oc3ccc(S(=O)(=O)N(C)C)cc3n12	0.75	x
NC(=O)CSc1nnc(C2CC2)n1CC1CCCO1 (configuration not stated)	-0.45	-0.33
O=c1ccc(-c2ccc(S(=O)(=O)NCc3ccccc3)s2)n[nH]1	-0.8	3.3
Cc1ccc(Nc2nc3nonc3nc2NC(C)C)cc1C	x	-0.56
O=C1/C(=C/c2ccc(-c3cc(Cl)ccc3Cl)o2)C=C(c2ccccc2)N1c1ccc(-c2ccccc2)cc1	x	0.33
CCc1ccc(NC2=CC(c3ccc(C(C)(C)C)cc3)N(c3ccc(CC)cc3)C2=O)cc1 (configuration not stated)	x	-0.4

Gathered by group, the entries above with fluorine
SMILES	AID504770	CapD inh
CCOCC(=O)Nc1cccc(C(F)(F)F)c1	-0.4	-0.67
CC1(C)CC(=O)C2=C(C1)N(Cc1cccnc1)C(=O)NC2(C(F)(F)F)C(F)(F)F	-0.15	0.33
NC(=O)C1CCCN1S(=O)(=O)c1ccc(F)cc1 (configuration not stated)	-0.25	x
CC(=O)NC1(C(F)(F)F)C(=O)Nc2c1c(=O)[nH]c(=O)n2Cc1ccco1 (configuration not stated)	2	0.095
O=C1CSC(c2c(F)cccc2Cl)N1c1cccc(C(F)(F)F)c1 (configuration not stated)	0.85	-1.1
CC(=O)Nc1cccc(Nc2nc(-c3ccccc3F)nc3ccccc23)c1	x	6.8
CCCOc1ccc(C2/C(=C(/O)c3ccc(C)c(F)c3)C(=O)C(=O)N2Cc2ccco2)cc1 (configuration not stated)	-0.4	x
CC(=O)/C(=C\Nc1cc(C(F)(F)F)cc(C(F)(F)F)c1)c1ccccc1	x	-0.59
O=c1cc(Cl)[nH]c(=O)n1CCNc1ncc(C(F)(F)F)cc1Cl	x	0.16

A second format for some results above:
| structure | AID504770 | CapD inh |
| --- | --- | --- |
| NC(=O)CSc1nnc(C2CC2)n1CC1CCCO1 (configuration not stated) | -0.45 | -0.33 |
| CC1CCCC(C)N1C(=O)NC1CCCCC1 (configuration not stated) | -0.05 | 0.92 |

Additional entries follow:
SMILES	AID504770	CapD inh
CC(C)c1ccc(NC(=O)CSc2n[nH]c(=O)n2C2CC2)cc1	-0.3	-0.52
Cc1cc(NC(=O)CSc2nc3c(sc(=S)n3CC3CCCO3)c(=O)n2-c2ccc(F)cc2)no1 (configuration not stated)	x	-0.3
CC(=O)NO	0.35	-0.005
COC(=O)c1ccc2c(=O)n(CCN3CCOCC3)c(SCC(=O)N3CCN(c4ccccc4)CC3)nc2c1	x	-0.3
Cc1cccc(NC(=O)Cn2c(=O)sc3ccccc32)c1	2.5	x
Cc1ccc(CN2CC34C=CC(O3)C(C(=O)O)C4C2=O)cc1 (configuration not stated)	0.15	0.21
CCCNC(=O)c1c(O)nc2ccccn2c1=O	-1.5	94
CCOC(=O)C1=C(C)Nc2ccccc2N/C1=N\S(=O)(=O)c1ccccc1	-0.45	x
COc1ccc(C2C(C(=O)NCc3ccco3)c3ccccc3C(=O)N2C)cc1 (configuration not stated)	-0.45	-0.28
S=C(NCCN1CCOCC1)Nc1ccc(-c2nnc3n2CCCCC3)cc1	0.55	x
COC(=O)C1(OC)COc2ccccc2O1 (configuration not stated)	-1.5	0.61
CN(Cc1ccccc1F)C(=O)c1cccc(S(=O)(=O)N(C)C)c1	2.3	x
O=C(COc1cc2ccccc2cc1C(=O)N1CCOCC1)Nc1ccc2c(c1)OCCO2	-0.3	x
COc1ccc(-c2nn(C)c3sc(C(=O)O)cc23)cc1OC	-1.1	24
CC(=O)NC(=O)/C(C#N)=C/N1CCOCC1	-0.2	-0.12
CCCCCC1C(=O)NC(=S)N(c2ccccc2)C1=O (configuration not stated)	x	-0.025
O=C1CC(CS(=O)(=O)c2ccc(C(F)(F)F)cn2)=NN1c1ccccc1	-1.6	0.36
FC(F)(F)c1ccc(-c2nc(-c3ccc(C(F)(F)F)nc3)ncc2-c2ccncc2)cc1	x	-0.8
Cc1ccc(C2C3C(=O)N(c4cccc(C)c4)C(=O)C3N3CCCN23)cc1 (configuration not stated)	x	-0.7
COc1ccc(/C=C2/Oc3ccccc3N(CC(=O)NC3CCCc4ccccc43)C2=O)cc1 (configuration not stated)	-0.45	0.53
S=c1[nH]nc(-c2cccc(Br)c2)o1	-0.65	12
CCOC(=O)CN1C(=O)CSc2ccccc21	1.6	0.085
COc1ccc(N2C(=O)/C(=C\c3ccco3)N=C2SCc2cc(=O)n3ccsc3n2)cc1Cl	0.8	x

Retrieved by structure from above, 2 records:
SMILES	AID504770	CapD inh
COc1ccc(/C=C2/Oc3ccccc3N(CC(=O)NC3CCCc4ccccc43)C2=O)cc1 (configuration not stated)	-0.45	0.53
COc1ccc(N2C(=O)/C(=C\c3ccco3)N=C2SCc2cc(=O)n3ccsc3n2)cc1Cl	0.8	x

Screening data from PubChem BioAssay.
